Bioassay records: PubChem, National Center for Advancing Translational Sciences (NCATS)
Prx2 Sm inh: inhibitors of Schistosoma mansoni peroxiredoxin 2 | S. mansoni Prx2 activity coupled to TGR/GSH (TGR is thioredoxin glutathione reductase), NADPH fluorescence loss, qHTS; some inactives read as strong as hits | Potency, µM | actives 0.07% (n = 65,000) | AID 448; active means full or partial inhibition curve with a strong effect at the top dose; inconclusive means weaker partial or single-point curve; inactive means no accepted curve; further: series up to 57 µM; many of its hits are not listed in these tables
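Prx2 inhibition was measured as reduced NADPH consumption when electrons flowed from NADPH through TGR and glutathione to Prx2 and H2O2. Plates were read kinetically over 8 min; enzyme reagents were held at 4 deg C during dispensing.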
LT uptake inh: blocks cellular internalization of anthrax lethal toxin. Cells, anthrax lethal toxin internalization, FRET ratio (460/530). Potency, µM (series often up to 40 µM), without a hit: top-dose activity change, negative = inhibition, usual class: inhibitors. actives 0.67% (n = 70,000); active = well fitted falling ratio curve with the 530 nm signal flat; inconclusive = other ratio curves, or a change in one channel alone; inactive = flat curves in the ratio and both channels; the % refers to the ratio; further: on the % scale 0 is the no-effect control and ±100 the full control effect; nearly all actives have a fitted effect of over 50% in size; tested in ME-180 cells; beta-lactamase reporter
* marks the source's active call; other numbers are inactive results; ? = inconclusive; . = not tested or not shown; & = joins results of further samples; [ ] = dose if it differs, or a comment. Potency means the concentration at half of the fitted maximal effect.

Start of the listing, in advance:
SMILES	LT uptake inh	Prx2 Sm inh
CC1(C)CC2(CC(C)(C)N1)OC(=O)N1CCc3ccccc3C12C (centres undefined)	-10%	>57
CC(=O)OC[C@H]1O[C@@H](CCO/N=C2/[C@H]3O[C@@H]3[C@@H](O)[C@H]3[C@H]2CCn2c(=O)n(-c4ccccc4)c(=O)n23)C=C[C@@H]1OC(C)=O	-9%[8 µM]	.

All compounds of this part, repeating the preview:
SMILES	LT uptake inh	Prx2 Sm inh
CC1(C)CC2(CC(C)(C)N1)OC(=O)N1CCc3ccccc3C12C (centres undefined)	-10%	>57
CC(=O)OC[C@H]1O[C@@H](CCO/N=C2/[C@H]3O[C@@H]3[C@@H](O)[C@H]3[C@H]2CCn2c(=O)n(-c4ccccc4)c(=O)n23)C=C[C@@H]1OC(C)=O	-9%[8 µM]	.
COC(=O)C1C(=O)NC(SC)=C(C#N)C1c1ccccc1 (centres undefined)	-7%	>57
COc1cc(C(N)=O)cc(Br)c1OC	-4%	>57
CCOC(=O)C1CSC(CC(=O)Nc2ccc(Cl)cc2)C(=O)N1 (centres undefined)	12%	>57
Cc1ccc(S(=O)(=O)NCCCNC(=O)c2ccccc2)cc1	-17%	>57
COc1ccc(Cl)cc1C(=O)Nc1ccccc1N1CCN(C)CC1	-14%	>57
COc1ccc(N2C(=O)C3CCCN3C2c2ccc(F)cc2)cc1Cl (centres undefined)	-5%	>57
CCOC(=O)c1c(C)n(C)c2ccc(OC(=O)c3ccoc3)cc12	-19%	>57
Cn1cccc1Cc1nnc(SCC(=O)Nc2cccc(F)c2)n1CCc1ccccc1	-29%	>57
COc1ccc(S(=O)(=O)N(C)CC(=O)N2CCC(C(N)=O)CC2)cc1	-6%	>57
CCOC(=O)Nc1cc(C)ccc1OC	3%	>57
O=C(O)CCSc1nnnn1-c1ccccc1	-13%	>57
COCc1nc2ccccc2n1Cc1ccccc1Br	.	>57
COc1cc(S(=O)(=O)Nc2ncccc2C)c(OC)cc1Cl	16%	>57
O=C(Nc1ccc(OC(F)(F)F)cc1)c1cnc2n(c1=O)CCS2	-7%	>57
O=C1CC(SCc2nc3ccccc3[nH]2)C(=O)N1c1cccc(F)c1 (centres undefined)	-2%	>57
N#Cc1c(NC(=O)c2cc(C3CC3)on2)sc2c1CCC2	?	>57
CCN(CCCNC(=O)CCc1nc(-c2ccc(C)cc2)no1)c1cccc(C)c1	-2%	>57
COc1ccccc1-c1ccc2ncnc(N(C)C)c2c1	-27%	>57
O=C(C1CCCCC1)N1CCN(c2ccccc2F)CC1	0%	>57
COc1cc(S(=O)(=O)Nc2cccnc2)ccc1F	3%	>57
COc1ccc(C(=O)CSc2nccc(=O)[nH]2)cc1	-6%	>57
S=C(c1ccc(-c2ccccc2Cl)o1)N1CCOCC1	?	.
COc1ccc(NC(=O)C2C(=O)N(C)C3(C)CC2c2ccccc2O3)cc1 (centres undefined)	4%	>57

A stretch from the list above:
SMILES	LT uptake inh	Prx2 Sm inh
CC1(C)CC2(CC(C)(C)N1)OC(=O)N1CCc3ccccc3C12C (centres undefined)	-10%	>57
CC(=O)OC[C@H]1O[C@@H](CCO/N=C2/[C@H]3O[C@@H]3[C@@H](O)[C@H]3[C@H]2CCn2c(=O)n(-c4ccccc4)c(=O)n23)C=C[C@@H]1OC(C)=O	-9%[8 µM]	.

Entries of single compounds, looked up by structure:
Profile of O=C(C1CCCCC1)N1CCN(c2ccccc2F)CC1 → LT uptake inh: 0%; Prx2 Sm inh: >57
Profile of COCc1nc2ccccc2n1Cc1ccccc1Br → LT uptake inh: .; Prx2 Sm inh: >57

(further entries)
SMILES	LT uptake inh	Prx2 Sm inh
CCCCCCC(C)n1[nH]c(=O)c2c(C)cc(=O)[nH]c21 (centres undefined)	?	>57
CCOC(=O)c1c(P(=O)(N2CCOCC2)N2CCOCC2)noc1N	-8%	>57
O=C(c1ccccc1F)N1CCN(S(=O)(=O)c2ccc(S(=O)(=O)N3CCCCC3)cc2)CC1	-5%	>57
CCOc1ccc(C(=O)Nc2c3c(nn2-c2cccc(Cl)c2)CS(=O)C3)cc1 (centres undefined)	6%	>57
CC(C)NC[C@@H](O)c1ccc(O)c2ncccc12	2%[8 µM]	>57
COCCNC(=O)NC1(C(F)(F)F)Oc2ccc(Cl)cc2O1 (centres undefined)	26%	>57
COc1ccc(Cl)cc1S(=O)(=O)NCc1cccs1	9%	>57
CCN(c1nc(N)c(C(=O)N=C(N)N)nc1Cl)C(C)C	15%	>57
CCOc1ccc(CCNS(=O)(=O)c2cnc[nH]2)cc1OCC	0%	>57
CCOC(=O)c1c(NC(=O)CSc2nnc(-c3cccnc3)o2)sc(C)c1C	.	>57
CN(C)S(=O)(=O)c1cccc(C(=O)NCCc2ccccc2)c1	?	>57
Cc1nnc(Sc2nc(Sc3nnc(C)s3)nc(N3CCN(C)CC3)n2)s1	15%	>57
COc1ccc(CN2CCN(C(=O)COc3cccc(C)c3)CC2)c(OC)c1	7%	>57
O=C1CC(C(=O)Nc2ncccn2)C(c2ccccc2)O1 (centres undefined)	.	>57
CCOC(=O)Cc1csc(NC(=O)COc2ccccc2OC)n1	2%	.
C=CCn1c(=O)c2ccccc2n2c(SCc3nnc(-c4ccccc4Br)o3)nnc12	11%	>57
Cc1oc(-c2ccccc2F)nc1CN1CCC(C(=O)NCc2cccs2)CC1	9%	>57
O=S1(=O)CC(O)C(N2CCC(c3ccccc3)CC2)C1 (centres undefined)	2%	>57
O=C(COC(=O)c1ccc(S(=O)(=O)NCc2ccco2)cc1)Nc1ccccc1OC(F)F	10%	>57
COC(=O)COc1ccc2occ(C(C)=O)c2c1	2%	>57
COc1cc2c(=O)n(Cc3ccco3)c(=O)n(CC(=O)c3cccc(Br)c3)c2cc1OC	-4%	>57
CCN(CC)S(=O)(=O)c1ccc2c(c1)nc(SCc1nc3ccsc3c(=O)[nH]1)n2CC	-15%	>57
CN1/C(=C\C(=O)CN2C(=O)NC3(CCCCCC3)C2=O)C(C)(C)c2ccccc21	4%	>57
O=c1c(-c2cc(F)cc(F)c2)nc2cncnc2n1C1CC1	9%	>57
CCCCNc1nc(C)nc2c1nc(-c1ccccc1)n2CC1CCCN1CC (centres undefined)	14%	.
CCc1nnc(NC(=O)CSc2nnc(Cc3cccn3C)n2C)s1	-9%	>57
CC(=O)N(C)c1ccc(NS(=O)(=O)Cc2ccccc2)cc1	9%	.
CCCN(CCC)S(=O)(=O)c1ccc(NS(C)(=O)=O)cc1	-13%	>57
COc1cc(CNC2CCCC2)cc(OC)c1OC	6%	>57
Cc1ccc2c(c1)-c1cc(C)nn1C(c1ccc3c(c1)OCO3)N2 (centres undefined)	-29%	>57
Cc1ccc2[nH]c(=O)c(COC(=O)c3ccccn3)cc2c1	2%	>57
Cc1cnc(NC(=O)c2ccc(-c3nc4ccccc4s3)o2)s1	-6%	>57
CCOC(=O)c1c(NC(=O)c2cccs2)sc(C)c1C	-8%	>57
CC1(C)NC(=O)N(CCCSc2ccc(Cl)cc2)C1=O	-13%	>57
CN1CCc2cc3c(c4c2C1CC41CCC(=NO)CC1)OCO3 (centres undefined)	7%	>57
CN1C(=S)SC(C)(C)C1NO (centres undefined)	13%	>57
O=C(CP(=O)(c1ccccc1)c1ccccc1)Nn1cnnc1	-7%	>57
COc1ccc(Oc2ncc3ncc(=O)n(-c4ccc(OC)cc4)c3n2)cc1	?	>57
COc1cccc(Cn2c(=O)c(-c3ccc(F)cc3)nc3cnc(N4CCNCC4)nc32)c1	-6%	>57
N#Cc1c(NC(=O)CSc2ncnc3sccc23)oc(-c2ccco2)c1-c1ccco1	?	>57
CO[C@@H]1COC(=O)C/C=C\[C@@H](C)[C@@H]2C=C[C@H](O)[C@@H](COC(=O)CCC[C@H]1C)O2	-23%[8 µM]	.
Cc1ccc(C2N(c3nccs3)C(=O)C3CCCN32)cc1 (centres undefined)	-10%	>57
COc1ccc(-n2ccnc2SCC(=O)Nc2ccc(OC)cc2OC)cc1	-12%	>57
COC(=O)C1Cc2c([nH]c3ccccc23)C(C)N1 (centres undefined)	0%	>57
Cc1ccc(CN2CCSc3ccc(C(=O)N4CCN(c5ncccn5)CC4)cc32)cc1	?	>57
CCOC(=O)CC(=O)CSc1nc(-c2cccnc2)cc(C)c1C#N	-3%	>57
COc1ccc(C2CC(c3ccccc3C)n3nc(N)nc3N2)cc1 (centres undefined)	3%	>57
CCN(CC)C(=O)CSc1nnc(-c2cnccn2)n1-c1ccc(C)cc1	?	>57
C=CCN1CN(S(=O)(=O)c2cccs2)c2nc3ccccc3nc21	0%	>57
Cc1cc(=O)oc2cc(O)c(CN(C)CC(=O)O)cc12	-6%[8 µM]	>57

(more compounds)
SMILES	LT uptake inh	Prx2 Sm inh
O=C(O)CCc1ccc(-c2cccs2)n1-c1ccc(C(=O)O)cc1	-6%	>57
C=CC[C@@H]1C=C[C@H](O/N=C(\C)CCN2CCc3nc(CC)c(CC)cc3C2)[C@H](CO)O1	12%[1.6 µM]	.
CCOc1cccc(OCCOCCN2CCCC2)c1	-5%	.
N#Cc1nc(-c2ccc(OCc3ccccc3)cc2)oc1NCCCn1ccnc1	?	>57
Cc1c(NC(=O)OCCSc2nc(N(C)C)nc(N(C)C)n2)sc(=S)n1C	-15%	.
COC(=O)C1CCN(C(=O)CSc2nnc(-c3ccncc3)o2)CC1	-7%	>57
COCCN(CCOC)S(=O)(=O)c1ccc(C(=O)Nc2nc(-c3ccncc3)cs2)cc1	2%	>57
OC(COc1ccc(Cl)c2ccccc12)CN1CCN(c2ccccn2)CC1 (centres undefined)	10µM*	>57
Cc1ccc(C)c(CN2C(=O)C3(OCCCO3)c3ccccc32)c1	?	>57
CCS(=O)(=O)n1nc(-c2ccccc2)cc1N	-3%	>57
CN(C)C=O	4%&-6%	.
CCCCn1c(=O)n(C)c(=O)c2c(C(F)(F)F)cc(-c3ccncc3)nc21	5%	>57
COc1ccccc1CN1CC[C@@]2(CCCN(C(=O)c3c(C)noc3C)C2)C1	9%	>57
O=C(c1cccs1)N(C(=O)c1cccs1)c1ccccn1	-13%	>57
CC(C)(C)c1ccc(S(=O)(=O)N2CCN(CCC#N)CC2)cc1	-4%	>57
CC(C)NC(=O)CN1CCC(O)(c2ccccc2)CC1	4%	>57
CN(C)CCNC(=O)C(C(=O)c1ccc(F)cc1)n1ccccc1=O (centres undefined)	8%	>57
CCOC(=O)c1[nH]c(C)c(C(=O)c2cc(F)ccc2F)c1C	?	>57
O=C(O)c1ccccc1S(=O)(=O)c1ccccc1CO	3%	>57
CCCCOC(=O)c1ccc(NC(=O)c2cnccn2)cc1	-6%	>57
C[C@]12CC[C@H](O)C[C@@H]1CC[C@H]1[C@H]2CC[C@]2(C)[C@H](C(=O)CO)CC[C@@H]12	?	>57
Cc1coc2c1CCC(C)C2 (centres undefined)	-2%	.
Cc1ccc(C(C)C)c(OCC(O)CN2CC(C)OC(C)C2)c1 (centres undefined)	-3%	>57
CC1CCN(c2ccccc2N)CC1	?	>57
CC1(C)Cc2c(sc(NC(=O)c3ccco3)c2C#N)CO1	-16%	>57
CCc1nc2c(cnn2-c2ccc(Cl)cc2)c(=O)n1-c1ccc2c(c1)OCCO2	4%	>57
Cc1ccc(-c2csc3ncnc(Sc4nnc(CN5CCCCCC5=O)o4)c23)cc1	?	>57
COCCn1c(=O)c(-c2cn(C)c3ccccc23)nc2cnc(Oc3ccc(OC)cc3)nc21	?	>57
Cc1c(C(=O)O)cnc2cc(-c3ccc(Cl)cc3)nn12	-6%	>57
COc1ccccc1CCn1c(=O)c(C)nc2cncnc21	-7%	>57
CC(=O)OCC1OC(C#Cc2ccc(F)cc2F)C=CC1OC(C)=O (centres undefined)	?	.
C=CCSC1=C(C#N)C(c2ccccc2)CC(=O)N1 (centres undefined)	-2%	>57
CCCNS(=O)(=O)c1ccc2c(c1)CCCN2C(C)=O	-6%	>57
CC(C)Sc1nc2c(c(=O)n(C)c(=O)n2C)n1Cc1ccc(Cl)cc1	-16%	>57
CSc1nnc(-c2ccco2)n1-c1ccccc1	-3%	>57
O=c1cc(N2CCc3ccccc3C2)[nH]c(=O)n1C1CCCCC1	13%	>57
O=C(NC1CCCCC1)C1CCN(S(=O)(=O)N2CCCCCC2)CC1	-12%	>57
Cc1cc(C)n(C(=O)CCC2COc3ccccc3O2)n1 (centres undefined)	-3%	>57
CC(C)C(NC(=O)c1ccccc1NC(=O)c1ccco1)C(=O)O (centres undefined)	-8%	>57
COc1cccc(NC(=O)CCP(C)(=O)O)c1	-11%	>57
Cc1cc(C(=O)Nc2cnn(Cc3ccc(Cl)cc3Cl)c2)no1	2%	>57
Cc1ccc(C)c(NC2=NCCCS2)c1	-6%	>57
CCOC(=O)N1CCN(C(=O)c2ccc3c(SCC(=O)O)c4c(nc3c2)CCC4)CC1	9%	>57

Quoted from the listing:
For LT uptake inh, `COc1cccc(NC(=O)CCP(C)(=O)O)c1` is entered as -11%
For LT uptake inh, `CCOC(=O)Cc1csc(NC(=O)COc2ccccc2OC)n1` is entered as 2%
For Prx2 Sm inh, `N#Cc1c(NC(=O)c2cc(C3CC3)on2)sc2c1CCC2` is entered as >57
For Prx2 Sm inh, `Cc1cc(C)n(C(=O)CCC2COc3ccccc3O2)n1` (centres undefined) is entered as >57

Not all compounds are listed; count on the stated rates, not on these rows.
